Screening results deposited in PubChem by several laboratories.
BJeLR lethal – kills HRASV12-expressing BJeLR cells; BJeLR (HRASV12) viability, CellTiter-Glo ATP luminescence, 48 h; reference of the scale not given here; inhibition, % (no concentration beside the values); 300,000 tested, 0.17% active;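 active = replicate mean above 50%; inconclusive = above 50% but judged a plate artefact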;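 also: 50 nL library stock added to about 25 µL; numbers are from one replicate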
Autofluor counter – counter-screen for toxin protease inhibitors: compound fluorescence | 360,000 tested, 3.1% active | AID 624483 | compound autofluorescence counterscreen, microsphere flow cytometry; active compounds read high | fluorescence intensity (test concentration not listed);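 active = at least 3 SD above the mean of all compounds, about 16000 in these data; inconclusive = too few beads counted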;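 also: 100 nL of 1 mM stock went into each well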
Mtb hypoxia inh – reduces hypoxia-regulated biosensor signal in M. tuberculosis. M. tuberculosis hypoxia-regulated fluorescent reporter, fluorescence. fluorescence inhibition, % (test concentration not listed). 300,000 tested, 0.1% active;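 active = 35 to 45% if threefold the growth effect, above 45% if 1.5-fold the growth effect; inactive = the rest, general growth blockers included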;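 also: wells of about 50 µL received 100 nL stock; 0% = vehicle wells and 100% = reference inhibitor wells; whole bacteria with a GFP reporter of the hypoxia response; strong numbers were not always called active; many hits fall short of the cut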
ugtP null kill – kills S. aureus RN4220 lacking UgtP; S. aureus RN4220 ugtP deletion, OD600 growth, 16 h; some inactives read as strong as hits; growth inhibition, % (test concentration not listed); 330,000 tested, 0.54% active;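 active = z-score under -3 and OD600 up to 0.15 on both plates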;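 also: plate controls were untreated wells for no effect and antibiotic for full effect; wells of about 80 µL received 100 nL stock; the first replicate is given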
RN4220 kill – S. aureus RN4220 growth inhibition; OD600, 16 h; inhibition, % (test concentration not listed); 330,000 tested, 0.33% active; AID 1259311;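 active = z-score of -3 or lower and OD600 up to 0.18 on both plates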;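 also: plate controls were untreated cells for no effect and reference antibiotic for full effect; stock transfer was 100 nL into about 80 µL; one replicate is shown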
PrP UTR inh – suppresses PrP 5' UTR mRNA reporter expression | cell-based PrP 5' UTR mRNA reporter, plate reader | inhibition, % (test concentration not listed) | 340,000 tested, 0.35% active;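 active = every replicate at 50% or more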;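 also: 0 = median of the neutral control wells; tested in H4 reporter cells; numbers are from one replicate; inactives centre near -14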
Mtb hypoxia inh growth – further read-out of Mtb hypoxia inh, marked with its call; growth inhibition, %; measured here: M. tuberculosis growth (absorbance);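 0% = vehicle and 100% = reference antibiotic; read after six days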
Active calls of the source: *; u = inconclusive; x = no result given; & = joins results of further samples.

SMILES	BJeLR lethal	Autofluor counter	Mtb hypoxia inh	Mtb hypoxia inh growth	ugtP null kill	RN4220 kill	PrP UTR inh
CC1CCCCN1C(=O)C(=O)c1cn(CC(=O)N2CCCCCC2)c2ccccc12 (configuration not stated)	-19	10512	-2	0	-6	3.1	-10
CC(C)(C)c1ccc(OCCC(=O)Nc2ccc(N3CCOCC3)cc2N2CCOCC2)cc1	-5	5787	-2	8	-4	3.9	-9
CC(=O)c1ccc(Sc2ccccc2)c([N+](=O)[O-])c1	-7	x	4	11	0	1.2	-1
O=C1NC2(C=Cc3c(ccc4ccccc34)O2)Oc2ccccc21 (configuration not stated)	-21	4378	6	-3	11	1.1	-19
COc1cccc(/C=C/C(=O)OCC(=O)Nc2cccc(S(=O)(=O)N3CCOCC3)c2)c1OC	2	4574	11	2	1	5.0	-46
Cc1cc(C)c(S(=O)(=O)N2CCN(c3ccc([N+](=O)[O-])c(NCc4ccco4)c3)CC2)c(C)c1	-5	11311	1	2	-10	-1.4	-1
CCn1cc(CN2CCC(C(=O)Nc3cccc(-c4cccc(OC)c4)c3)CC2)cn1	-2	4560	0	0	1	-0.9	-10
O=C(Cc1ccccc1)OCCNC(=O)c1cccnc1	5	5785	12	1	4	2.2	-21
COCCCN(C(=O)c1ccccc1F)c1nc(-c2ccc(OC)cc2)cs1	-7	3454	21	8	44	4.3	-16
CCOc1ccc(OCc2ccc(C(=O)NN=C(C)c3ccccn3)cc2)cc1	x	x	10	2	2	18	x
CCOc1ccc2[nH]c(=O)c(=O)[nH]c2c1	x	5800	x	x	-2	0.0	-15
COC(=O)c1cc(C)nc(Sc2ccccc2NC(C)=O)n1	11	4699	2	4	7	6.0	x
Nc1ccc(CCc2nc3ccccc3o2)cc1	1	8703	-2	7	-6	-4.9	-81
CN(C)CCN=Cc1c(O)n(Cc2ccc3c(c2)OCO3)c(=S)[nH]c1=O	-9	x	13	13	9	2.2	-11
CN1C(=O)c2cccc3c(S(=O)(=O)Nc4ccccn4)ccc1c23	-9	2183	x	x	-5	-0.3	-10
CCCCn1nc(C(=O)N(CC)CC(=O)Nc2c(F)cccc2F)c2ccccc2c1=O	x	3987	7	5	11	2.6	-32
O=C(c1cccnc1)N1CCc2ccccc2C1	-8	8271	-2	0	-4	-0.4	0
Cc1nn(C2CCS(=O)(=O)C2)c(Cl)c1/C=C/C(=O)OCC(=O)Nc1ccc2c(c1)OCO2 (configuration not stated)	-8	4540	12	11	14	5.3	-13
CSc1nc(NCCCO)c2c3c(sc2n1)CN(C)CC3	-4	6143	-5	-7	5	4.1	-19
CC1=CC(=O)NP(=O)(Oc2ccc3ccccc3c2)N1 (configuration not stated)	1	2765	4	8	-12	-15	-25
O=C(NN=Cc1ccncc1)c1cc(C2CC2)nc2ccccc12	x	x	11	-2	-4	2.7	x
COc1cc(CCCN2CCNCC2Cc2ccc(O)cc2)cc(OC)c1OC (configuration not stated)	x	x	15&14	3&15	2&1	5.7&2.1	x
CCNC(=S)N/N=C(\C)c1ccc(N2CCOCC2)cc1	-2	2320	x	x	x	x	-30
O=C(COc1ccc(S(=O)(=O)NCc2ccccc2)cc1Cl)NCC1CCCO1 (configuration not stated)	2	6113	3	2	8	6.6	-26
COc1c(Cl)cc(Cl)cc1CNCCO	8	1952	13	2	5	3.7	-9
CCOC(=O)C1(Cc2cccc(OC)c2)CCN(Cc2cccc(O)c2)CC1	7	4590	x	x	x	x	-26
CCOc1cc(C(=O)OCC(=O)c2c[nH]c3ccccc23)ccc1OCC(=O)N1CCOCC1	1	4307	x	x	-3	-0.5	-11
CCOc1ccc(-c2c(=O)n(OCc3ccccn3)c3ccccc3[n+]2[O-])cc1	-8	22653*	8	14	-2	8.2	-31
CCOC(=O)c1ccc(OS(=O)(=O)c2ccccc2)c(OC)c1	12	2191	6	6	0	22	-149
COCCNC(=S)NN=C(C)c1cccc(C(F)(F)F)c1	x	x	-4	5	-2	0.0	x
CCS(=O)(=O)N1CCCC(C(=O)c2ccc(OC)cc2C)C1 (configuration not stated)	-5	4399	-3	4	-10	-3.3	-50
Cc1nnc(SCC(=O)Nc2ccc3c(c2)OCO3)[nH]c1=O	3	1999	3	14	13	0.1	-17
O=Cc1ccc(-n2cccn2)cc1	1	4964	6	0	4	6.6	-14
Cc1csc(SCC(=O)c2c(N)n(CC(C)C)c(=O)n(C)c2=O)n1	-2	11120	-8	4	-8	2.9	-9
NC(=O)C1CCN(C(=O)CCNS(=O)(=O)c2ccccc2F)CC1	x	3156	8	6	10	3.2	5
Cc1coc2c(C)c3oc(=O)cc(-c4ccccc4)c3cc12	0	3151	x	x	-3	2.4	8
Cc1ccc(C(=O)/C=C\Nc2ccc(C)c(C)c2)cc1	6	2856	x	x	x	x	-133
CC1CN=C(Nc2ccccc2)S1 (configuration not stated)	6	10458	0	-3	2	7.1	-17
O=C(CSc1cccc(C(F)(F)F)c1)Nc1cc(S(=O)(=O)N2CCCC2)ccc1Cl	-16	9114	6	0	-9	4.3	-31
O=C(NCCCCNC(=O)c1c(F)c(F)c(F)c(F)c1F)c1c(F)c(F)c(F)c(F)c1F	-2	4237	5	4	4	1.4	-43
COc1cc(/C=C2/C(=O)NC(=O)N(c3ccccc3)C2=O)ccc1O	1	2705	4	7	1	3.9	-13
COc1ccc(-c2nn3c(COc4ccccc4)nnc3s2)cc1OC	2	17330*	7	-1	6	2.7	1
COc1ccc([C@@H]2[C@@H]3C(=O)N(C(C)(C)C)C(=O)[C@@H]3[C@]3(Cc4ccc(Cl)cc4)C(=O)N(c4ccc(OC)cc4)C(=O)N23)cc1	-6	3830	x	x	x	x	-8
CC(=O)NC(CC(=O)NC(C)c1ccc(Cl)cc1Cl)c1ccccc1 (configuration not stated)	-1	4032	13	9	6	3.9	-6
Cc1cccc(NS(=O)(=O)c2cc(Cl)ccc2Cl)n1	-15	3961	-9	2	3	0.6	-3
COc1ccccc1C(O)c1nccn1C (configuration not stated)	-14	5715	1	0	3	3.2	-7
O=C(NCc1ccc2c(c1)OCO2)c1c(-c2ccccc2)sc2ccccc12	x	4354	3	4	1	4.5	-25
COc1ccc(C(=O)Nc2ccnn2C2CCN(CCC(C)c3ccc(C)o3)CC2)cc1 (configuration not stated)	-3	5725	5	10	5	1.3	3
CN(C(=O)COC(=O)C1(C)CC1(Cl)Cl)c1c(N)n(Cc2ccccc2)c(=O)[nH]c1=O (configuration not stated)	x	3765	8	12	2	3.4	-12
CCOC(=O)C(=NO)C1=NC(C)(C)Cc2ccccc21	x	x	6	9	1	1.4	x
Next structures follow.
SMILES	BJeLR lethal	Autofluor counter	Mtb hypoxia inh	Mtb hypoxia inh growth	ugtP null kill	RN4220 kill	PrP UTR inh
O=C(Nc1ccc(S(=O)(=O)N2CCOCC2)cc1)c1ccccc1F	7	3836	14	11	11	2.6	-25
CN(C)c1ccc(-c2nc3cnccn3c2Nc2ccc3c(c2)OCCO3)cc1	-4	4345	1	11	11	4.0	-18
COc1ccc(OCC(O)CN2C(=O)c3ccccc3S2(=O)=O)cc1 (configuration not stated)	0	4904	x	x	-5	-4.7	-1
O=C1CC(N2CCN(c3ccccc3F)CC2)C(=O)N1c1ccc(F)cc1 (configuration not stated)	4	2365	10	5	-4	4.0	-16
O=C(Cn1ccnc1)c1ccc(Cl)cc1	13	3069	-2	-10	0	2.7	-11
COC(=O)c1c(NC(=S)NNC(=O)c2ccc(Cl)s2)sc(C(=O)N(C)C)c1C	-1	5728	-4	11	-4	-2.0	11
COc1ccccc1-c1c(C)oc2c(CN3CCCC(C)C3)c(O)ccc2c1=O (configuration not stated)	-4	3449	-3	0	8	-2.4	-23
Cc1ccc(C(=O)O)cc1N1C(=O)c2cccc3cc(Br)cc(c23)C1=O	0	u	1	2	-6	-10	-19
Cc1ccc2nc(-c3cccnc3)oc2c1	-2	9358	1	2	-4	3.3	-58
CC(=O)N1c2ccccc2NC(=O)C1(C)C	0	3857	24	8	7	0.8	0
CCOC(=O)C1=C(C)N(C[C@@H]2CC[C@@H](Cc3ccc(-c4ccccc4)cc3)O2)C(=O)NC1c1ccc(Cl)cc1 (some centres not stated)	x	3652	2	-8	2	-3.9	-18
Cc1csc(-c2coc3cc(O)cc(C)c3c2=O)n1	2	8099	18	12	17	-1.6	-48
O=C(COC(=O)/C=C/c1ccc([N+](=O)[O-])cc1)NNC(=O)c1ccccc1	x	4195	0	4	5	4.7	-8
COc1ccc(CCNc2cc(-c3ccccc3)nc3ncnn23)cc1	-7	3173	x	x	2	6.6	-1
NC(=NC(=O)c1ccc(OCC(F)(F)F)nc1)c1ccccc1	6	4913	-4	8	-1	1.0	-23
ON=Cc1cn(-c2ccccc2)nn1	x	x	5	0	1	3.7	x
CSc1ccc(CN2CCN(C(C)C)C(CCO)C2)cc1 (configuration not stated)	-14	2648	7	1	9	0.4	-15
COc1ccc(C(=O)NCC(=O)N2CCC(C)CC2)cc1OC	-11	4642	x	x	9	0.4	-12
CN(C(=O)CSc1nncn1-c1ccccc1)c1ccccc1	-14	3530	-2	10	4	1.8	-28
CCCC(=O)Nc1cc(OC)c(NC(=O)NC2CCCCC2)cc1OC	-2	12807	-3	0	3	4.1	-11

Profiles, looked up by structure.
Cc1csc(-c2coc3cc(O)cc(C)c3c2=O)n1 across the screens: BJeLR lethal = 2; Autofluor counter = 8099; Mtb hypoxia inh = 18; Mtb hypoxia inh growth = 12; ugtP null kill = 17; RN4220 kill = -1.6; PrP UTR inh = -48
CCCC(=O)Nc1cc(OC)c(NC(=O)NC2CCCCC2)cc1OC across the screens: BJeLR lethal = -2; Autofluor counter = 12807; Mtb hypoxia inh = -3; Mtb hypoxia inh growth = 0; ugtP null kill = 3; RN4220 kill = 4.1; PrP UTR inh = -11
ON=Cc1cn(-c2ccccc2)nn1 across the screens: BJeLR lethal = x; Autofluor counter = x; Mtb hypoxia inh = 5; Mtb hypoxia inh growth = 0; ugtP null kill = 1; RN4220 kill = 3.7; PrP UTR inh = x

Later entries
SMILES	BJeLR lethal	Autofluor counter	Mtb hypoxia inh	Mtb hypoxia inh growth	ugtP null kill	RN4220 kill	PrP UTR inh
COc1ccc2nc(NC(=O)CSc3nc(SC)ns3)sc2c1	1	2722	12	-4	-2	-3.7	-39
COC(C(=O)Nc1ccc(S(=O)(=O)Nc2c(C)cccc2C)cc1)c1ccccc1 (configuration not stated)	12	9232	8	6	8	-1.2	-19
Cc1ccc(NC(=O)CC(C)CC2=NS(=O)(=O)c3ccccc3N2)cc1 (configuration not stated)	2	4413	-2	-4	10	-2.5	-10
CC1CCC2(CC1)NC(=O)N(CC(=O)NC(=O)NC1CCCC1)C2=O (configuration not stated)	-24	8105	0	6	-1	4.0	-16
COCCN(C(=S)Nc1c(C)cccc1C)C(C)c1cccs1 (configuration not stated)	5	4407	-1	-6	10	7.7	-23
CC1CCC(NC(=O)c2cc(S(=O)(=O)N3CCCCC3)c[nH]2)CC1 (configuration not stated)	9	4286	9	7	6	-7.6	-16
COc1ccc(Cl)cc1S(=O)(=O)Nc1ccncc1	1	3685	3	9	4	2.5	-25
Cc1cc(C(=O)Nc2ccccc2N2CCOCC2)c2ccccc2n1	-9	3021	15	4	4	5.3	-8
CC1(C)CC(=O)C=C(Nc2ccc(Cl)cc2)C1	0	4391	0	8	7	2.0	-19
COc1ccccc1C(C(=O)NC1CCCC1)N(C(=O)c1csnn1)C1CC1 (configuration not stated)	3	4411	11	2	3	4.1	3
O=C(CCc1nc(-c2ccccc2F)no1)Nc1cccnc1	-8	6023	11	-9	1	0.7	0
CCCS(=O)(=O)c1c(S(=O)(=O)CCC)c2ccc(C(C)=O)cn2c1C(=O)OC	-2	4336	7	5	10	6.4	-19
O=C(NCCCN1CCCC1=O)C1CCN(S(=O)(=O)c2ccccc2)CC1	x	7568	4	-5	4	2.3	-15
Cc1c(Cc2ccccc2)c(=O)oc2c(C)c(OC(C)C(=O)NCC3CCC(C(=O)O)CC3)ccc12 (configuration not stated)	-4	5867	x	x	9	1.3	-6
CCCCN(C(=O)Cn1nnc2ccccc21)C(C(=O)NCc1ccco1)c1ccncc1 (configuration not stated)	6	2335	x	x	-3	-0.9	0
Cc1ccc(NC(=O)N(CCCN2CCOCC2)Cc2cccnc2)cc1C	-1	5826	13	5	1	1.6	-3
